CtBP-E1A blk: qHTS Assay for Inhibitors of the CtBP/E1A Interaction | AlphaScreen GST-E1A/His-CtBP binding, 1536-well; active compounds read low; control for the full effect not named in the record | activity change, % (no concentration beside the values) | 0.49% of 340,000 active | AID 651724, 2012; in the data active means activity change below about -65%; inconclusive means about -30% to -65%; inactive means above about -30%; note: % is set by controls: 0 for no effect and ±100 for the full control effect
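AlphaScreen with 125 nM GST-E1A and 125 nM His-CtBP (5X stocks) in Tris pH 8.0, 300 mM NaCl, BSA, Tween 20, TCEP. Compounds preincubated 2 h at 37 deg C, then glutathione donor/nickel acceptor beads added for 1 h at 37 deg C in dark.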
Menin-MLL FL inh: qHTS Assay for Inhibitors Targeting the Menin-MLL Interaction in MLL Related Leukemias: Competition With Fluorescein Labeled MLL-derived Peptide | 290,000 tested, under 10 active | Fluorescence polarization, fluorescein-MLL peptide displacement from menin | FP activity change, % at 61.4 µM | AID 1766, 2009; inconclusive = falling polarisation curve, or a change in total fluorescence; inactive = total fluorescence flat and polarisation flat or rising; no compound was filed as active; the % refers to the polarisation; negative = inhibition;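 note: % of control where 0% means no effect; inhibitors lower the polarisation; unlabelled MLL peptide was the positive control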
ClpP mod: qHTS Assay for Activators of ClpP | ATP-dependent Clp protease proteolytic subunit (Bacillus subtilis (strain 168)), P80244 | purified B. subtilis ClpP, FRET peptide cleavage, 20 min | Potency, µM (series often up to 57.5 µM), for inactives: at the top dose activity change, negative = active | 1.9% of 340,000 active; active = well fitted falling curve with a large enough effect; inconclusive = small, poorly fitted or top-dose-only effect; inactive = no such curve, though single readings can be large or run the other way; note: potency is the fitted concentration of half-maximal effect; the source files actives as falling curves though it sought activators and does not explain the sign; nearly all actives have a fitted effect of over 65% in size; many hits overshoot -100%
Target sequence (P80244 whole entry, looked up): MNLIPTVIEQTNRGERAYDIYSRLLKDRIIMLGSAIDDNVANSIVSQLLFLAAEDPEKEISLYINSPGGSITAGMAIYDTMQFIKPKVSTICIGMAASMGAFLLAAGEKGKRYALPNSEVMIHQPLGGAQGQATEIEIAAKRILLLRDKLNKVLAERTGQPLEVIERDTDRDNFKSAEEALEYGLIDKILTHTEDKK
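Purified B. subtilis ClpP, 10 microg/mL final in Tris/HCl pH8 with KCl, BSA, glycerol and Tween-20, cleaved an Abz/nitrotyrosine-quenched decapeptide. Fluorescence (ex 320, em 430) was read at 0 and 20 min at room temperature. Delta was normalized to 5.8 microM ADEP and DMSO/no-enzyme controls.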
gsp ag: qHTS for Agonist of gsp, the Etiologic Mutation Responsible for Fibrous Dysplasia/McCune-Albright Syndrome: qHTS. 0.13% of 340,000 active. gsp mutant cells, cAMP HTRF, 30 min; control for the full effect not named in the record. Potency, µM (highest dose often 76.9 µM), for the others: at the top dose activation (cAMP increase), most hits filed as activators. AID 624287, 2012; active = well fitted activation curve with a large enough effect; inconclusive = small, poorly fitted or top-dose-only effect, or another doubt; inactive = no such curve, though single readings can be large or run the other way; cell line not stated here;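 note: phosphodiesterase inhibitor Ro 20-1724 added with compounds to block cAMP breakdown; potency is the fitted concentration of half-maximal effect; nearly all actives have a fitted effect of over 60% in size; about a fifth of the inactives were tested at one dose only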
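Cells stably selected in G418 were plated at 2000/well, grown 16-24 hr, then given compounds in DMSO with the PDE inhibitor […] (300 uM solution added) for 30 min at 37C; cAMP was read by HTRF.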
gsp antag: qHTS for Antagonists of gsp, the Etiologic Mutation Responsible for Fibrous Dysplasia/McCune-Albright Syndrome: qHTS | Potency, µM (highest dose often 76.9 µM), for the others: at the top dose activity change, negative = inhibition, actives largely listed as inhibitors | AID 624288, 2012 | 0.4% of 340,000 active | gsp-mutant cells, cAMP HTRF, 30 min; control for the full effect not named in the record; active = falling curve of any shape with a large fitted effect; inconclusive = falling curve, mostly with a smaller effect; inactive = flat or rising curve; cell line not stated here;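 note: intracellular cAMP measured with PDE inhibitor Ro 20-1724 present during compound exposure; potency is the fitted concentration of half-maximal effect; % is set by controls: 0 for no effect and ±100 for the full control effect; nearly all actives have a fitted effect of over 65% in size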
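HTRF cAMP measurement after 30 min RT detection following 30 min, 37C compound treatment alongside […] (added as 300 uM solution) in G418-selected cells seeded at 2000/well and grown 16–24 h.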
TRPV1 PAM: HTS Assay for Compounds that Act as Potentiators of the Vanilloid Receptor 1. 0.02% of 320,000 active. TRPV1-expressing cells, Fluo-8 calcium influx, capsaicin EC20 potentiation; host cell line not named in the record; control for the full effect not named in the record. Transient receptor potential cation channel subfamily V member 1 (Homo sapiens), Q8NER1. potentiation, % at 8.33 µM; active means potentiation above 80%; inconclusive means 30% to 80%; inactive means below 30%; note: 0% is about no effect
Target sequence (Q8NER1 whole entry, looked up): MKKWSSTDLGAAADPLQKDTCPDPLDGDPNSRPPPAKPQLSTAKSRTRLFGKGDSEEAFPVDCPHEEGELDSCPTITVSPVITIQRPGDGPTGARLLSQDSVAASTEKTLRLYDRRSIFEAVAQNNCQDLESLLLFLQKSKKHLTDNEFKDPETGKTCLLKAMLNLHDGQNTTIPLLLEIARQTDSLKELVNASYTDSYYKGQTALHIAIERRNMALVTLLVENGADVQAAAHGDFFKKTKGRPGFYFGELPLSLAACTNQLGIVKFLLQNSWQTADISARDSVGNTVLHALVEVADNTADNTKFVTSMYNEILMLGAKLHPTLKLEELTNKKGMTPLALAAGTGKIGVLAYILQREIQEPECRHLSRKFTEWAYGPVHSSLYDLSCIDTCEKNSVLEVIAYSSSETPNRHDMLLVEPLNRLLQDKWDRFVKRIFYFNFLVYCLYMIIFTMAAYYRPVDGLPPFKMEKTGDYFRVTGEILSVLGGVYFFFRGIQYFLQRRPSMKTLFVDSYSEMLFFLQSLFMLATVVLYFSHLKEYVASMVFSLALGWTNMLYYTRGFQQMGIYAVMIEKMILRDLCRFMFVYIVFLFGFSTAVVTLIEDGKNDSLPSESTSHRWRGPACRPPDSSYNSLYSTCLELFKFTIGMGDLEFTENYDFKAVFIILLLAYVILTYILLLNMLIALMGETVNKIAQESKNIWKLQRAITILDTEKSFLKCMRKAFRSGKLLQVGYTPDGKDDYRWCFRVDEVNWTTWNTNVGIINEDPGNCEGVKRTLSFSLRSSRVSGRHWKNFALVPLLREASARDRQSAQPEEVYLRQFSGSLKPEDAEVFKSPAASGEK
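Cells expressing TRPV1 were dye-loaded with Fluo-8 and read kinetically: 10 s baseline, 3 min after compound (agonist portion), then 2 min after EC20 capsaicin (allosteric enhancer portion). Calcium-bound dye fluorescence at 480/520 nm.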
Sfp inh: qHTS Assay for Inhibitors of Bacillus subtilis Sfp phosphopantetheinyl transferase (PPTase). 4'-phosphopantetheinyl transferase ffp (Bacillus subtilis), Q9F4F7. 3.5% of 310,000 active. Potency, µM, for the others: max response, negative = inhibition, usual class: inhibitors. Biochemical Sfp PPTase activity, qHTS; active = well fitted inhibition curve with a large enough effect; inconclusive = small, poorly fitted or top-dose-only effect, or another doubt; inactive = no such curve, though single readings can be large or run the other way;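 note: the enzyme is Sfp with the accession as filed and its product quenches rhodamine fluorescence; potency is the fitted concentration of half-maximal effect; 0% = enzyme reaction without inhibitor and -100% = no enzyme wells; top concentration of the series not given in the record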
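Reaction rates are the 30-min fluorescence difference (ex 525, em 598 nm) in wells containing 15 nM Sfp, 5 uM rhodamine-CoA and 12.5 uM BHQ-2-YbbR at pH 7.6 with 10 mM MgCl2.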
Active calls of the source: *; ? = inconclusive; . = no result given; [ ] = another dose, or the depositor's remark.

No.	Molecule	ClpP mod	gsp antag	CtBP-E1A blk	TRPV1 PAM	gsp ag	Sfp inh	Menin-MLL FL inh
1	CCCCN(C(=O)CN1C(=O)C2CCCCC2C1=O)c1c(N)n(CCCC)c(=O)[nH]c1=O (centres undefined)	.	6.9%	-3.8	-15.0	7.6%[15.4 µM]	.	.
2	Cc1ccc(S(=O)(=O)N2CCn3cccc3C2C)cc1 (centres undefined)	-3.6%	6.9%	-17.5	-13.8	11.5%	.	.
3	CCc1sc2nc(SCC(=O)Nc3cc(C)on3)n(-c3cccc(OC)c3)c(=O)c2c1C	-6.8%	-6.5%	-18.7	-14.8	3.0%	56.2µM*	13.6
4	COC(=O)C1=C(C)N(c2ccc(OC)c(OC)c2)C(=O)C1	0.0%	-1.6%	5.4	9.1	-64.1%	10.5%	0.1
5	O=C(CSc1nc2c(cnn2-c2ccc(F)cc2)c(=O)[nH]1)N1CCCc2ccccc21	-0.2%	-1.5%	-4.3	12.4	4.3%	22.3%	1.1
6	CCNC(=O)OCC12CC3CC(CC(C3)C1)C2	1.6%	18.4%	14.0	-8.8	-1.9%	9.9%	5.1
7	CC[C@@H](C)[C@H](NC(=O)Cc1c(C)c2c(cc(C)c3c(C)coc32)oc1=O)C(=O)O	.	0.6%	-23.5	-4.4	13.4%[15.4 µM]	3.7%	2.9
8	Cn1c(=NC(=O)c2ccco2)sc2cccc(F)c21	-25.6%	1.3%	10.7	.	-27.1%	-19.9%	?
9	CC(=O)Nc1sc(C)c(C)c1C(=O)OCC(=O)NCc1ccccc1	?	3.6%	-3.5	4.6	3.9%	.	.
10	CCC1=NN(C(=O)COc2ccccc2)C(O)(c2ccc(Br)cc2)C1 (centres undefined)	.	-1.2%	2.2	7.3	4.2%	?	0.5
11	COc1cc([N+](=O)[O-])ccc1NC(=O)Cc1ccc(C)cc1	1.0%	-9.8%	.	-44.2	1.4%	-4.9%	-2.3
12	COc1ccc(Cl)cc1/C=C1/C(=O)ON=C1C	.	6.3%	-20.6	0.9	8.6%	50.1µM*	-1.2
13	CN(Cc1ccccc1)C(=S)NC(=O)c1ccccc1	.	3.4%	-11.2	-2.8	?	10.0%	-7.2
14	COc1ccc(N(CC(=O)N2CCN(Cc3ccccc3)CC2)S(C)(=O)=O)cc1Cl	-1.3%	-9.0%	-19.1	2.9	28.1%	-2.2%	-5.0
15	Cc1ccc(NC(=O)c2cncc(Br)c2)cc1S(=O)(=O)N(C)C	0.2%	-14.0%	-7.4	19.6	1.1%	-21.8%	0.7
16	C/C(=N\Nc1ccc(C(F)(F)F)cc1[N+](=O)[O-])C1CC1	2.0%	-2.2%	13.5	17.4	-26.9%	4.1%	6.1
17	CC1CCC/C(=N\NS(=O)(=O)c2ccccc2)C1 (centres undefined)	-0.3%	15.2%	1.7	26.8	?	7.3%	6.9
18	CC(=O)O[C@H]1C(=O)[C@@]2(C)C([C@H](OC(=O)c3ccccc3)[C@]3(O)C[C@H](OC(=O)[C@H](O)[C@@H](NC(=O)c4ccccc4)c4ccccc4)C(C)=C1C3(C)C)[C@]1(OC(C)=O)CO[C@@H]1C[C@H]2O (some centres undefined)	-0.1%	1.4%	-8.4	-2.7	.	22.4%	-2.4
19	Cc1ccn2c(=O)nc(SCC(=O)NCc3ccc(F)cc3)nc2c1	?	2.2%	-21.5	?	?	.	.
20	Cc1ccc(C)n1Cc1ccc(C(=O)O)cc1	-0.8%	11.5%	4.0	10.8	-16.6%	?	?
21	COc1ccc(-c2n[nH]c(=S)o2)c(OC)c1	25.1µM*	-4.2%	3.6	-3.4	?	?	0.3
22	Nc1nc2ccccc2cc1-c1cccs1	3.7%	4.6%	13.3	6.7	-6.9%	-1.4%	-2.4
23	Cc1ccc(NC(=O)COC(=O)c2ccc(OC(F)F)cc2)cc1S(=O)(=O)N1CCCCC1	0.8%	10.3%	-16.5	.	?	.	.
24	C=CCN(c1ccccc1Cl)S(=O)(=O)c1cccc(C(=O)OCC(=O)N(C)C2CCS(=O)(=O)C2)c1 (centres undefined)	.	-10.8%	-14.6	3.6	-2.8%[15.4 µM]	3.6%	-0.4
25	Cc1ccc[n+](C(C)C(=O)Nc2ccc([N+](=O)[O-])cc2C)c1 (centres undefined)	.	13.7%	8.2	3.3	-4.0%	2.6%	-0.5
26	COc1cc(/C=C/C(=O)OCC(=O)N(C)Cc2ccccc2)cc(OC)c1OC	-19.2%	3.8%	.	.	11.4%	.	.
27	O=C(COC(=O)Cc1ccsc1)NC(c1ccccc1)c1ccccc1	-4.3%	7.1%	7.5	-11.1	14.0%	-5.2%	-1.5
28	CC(C)Oc1ccc(S(=O)(=O)N2CCOCC2)cc1NC(=O)C1=COCCO1	-1.9%	-7.3%	-14.0	6.2	14.1%	.	.
29	CCOC(=O)C1=C(COC(=O)c2ccccc2[N+](=O)[O-])NC(=O)NC1C (centres undefined)	.	8.8%	10.3	11.6	24.4%[15.4 µM]	.	.
30	CCOc1ccc(S(=O)(=O)N2CCCCC2)cc1NC(=O)C1CCC1	14.1µM*	4.0%	-11.1	-17.6	-30.7%[inhibitor]	.	.
31	Cc1cc(O)c(C(C[N+](=O)[O-])c2ccc(Cl)cc2)c(=O)o1 (centres undefined)	1.1%	-4.9%	-6.4	2.6	-15.3%	-11.6%	3.8
32	CCCN(CCC)CCCNC(=O)CCNS(=O)(=O)c1ccc(Br)cc1	-1.2%	7.2%	4.3	2.2	0.5%[15.4 µM]	11.2%	1.8
33	c1ccc(-c2nn3c(Cn4nnc5ccccc54)nnc3s2)cc1	-8.4%	2.7%	10.3	-11.5	?	-99.8%	0.2
34	O=C(NCCNc1ccc([N+](=O)[O-])cc1)c1cccs1	-1.8%	2.1%	-0.3	-5.5	-7.9%[15.4 µM]	15.7%	0.3
35	O=c1c2ccccc2nnn1COc1ccc(F)cc1Cl	.	8.3%	9.0	-0.6	-0.3%[15.4 µM]	16.1%	1.9
36	CCOC(=O)c1cccc(NC(=O)COc2ccc([N+](=O)[O-])cc2)c1	-1.0%	?	-5.6	.	3.9%	12.1%	4.2
37	O=C(NC1CCCC1)c1ncn[nH]1	1.4%	-3.0%	?	9.5	-3.0%	-6.5%	-1.8
38	CN1CCN(c2nc(-c3ccc(C(C)(C)C)cc3)nc3ccccc23)CC1	-3.2%	-6.8%	.	-12.4	1.2%	?	8.8
39	COc1ccc(C(=O)NCC(=O)OCC(=O)N2CCCc3ccccc32)cc1	.	-2.4%	5.0	1.0	-0.7%[15.4 µM]	-2.4%	7.3
40	Cc1cc(NS(=O)(=O)c2ccc(NC(=S)NC(=O)c3cccc(S(=O)(=O)N(C)C)c3)cc2)no1	0.2%	-4.9%	-8.6	?	3.6%	-26.9%	2.5
41	COc1ccc(-c2noc(C(=O)NCc3ccc(F)cc3)n2)cc1OC	.	-4.4%	-2.9	-4.4	-15.7%	12.4%	-1.4
42	Cn1c(=O)[nH]c(=O)c2c1nc(CN1CCN(c3ccc(F)cc3)CC1)n2CCN1CCOCC1	-0.8%	6.1%	11.1	2.7	?	-24.6%	-1.6
43	CCCCn1c(SCC(=O)Nc2nnc(C(C)C)s2)nc2c1c(=O)n(C)c(=O)n2C	2.6%	-5.5%	2.4	-2.8	?	14.7%	-0.3
44	CCOc1ccc(CCNC(=O)COC(=O)c2nn(C)c(=O)c3ccccc23)cc1OCC	.	-11.3%	5.3	6.0	-3.5%[15.4 µM]	.	.
45	COc1ccc(S(=O)(=O)Nc2ccc(NC(C)=O)cc2)cc1Cl	.	3.2%	1.6	-8.0	23.0%[15.4 µM]	19.0%	0.3
46	O=c1cnn(Cc2ccc(F)cc2)c2ccccc12	.	5.5%	5.6	7.4	-7.2%	15.7%	4.4
47	COc1ccccc1CN1CC(C(=O)NCC2(O)CCCCC2)CCC1=O (centres undefined)	0.2%	.	4.8	.	-58.6%[inhibitor]	.	.
48	Cc1c(C(C)C)c(=O)n(-c2ccc(S(=O)(=O)NC(C)C)cc2)n1C	.	1.7%	2.3	18.2	14.9%[15.4 µM]	-15.6%	0.4
49	O=C(O)C1=C[C@H](c2ccc(F)cc2)C[C@H](OCc2ccc(CO)cc2)O1	-3.2%	2.9%	-3.1	21.5	.	14.5%	1.3
50	COc1ccc2c(=O)cc(-c3ccccc3)n(C)c2c1	-5.0%	6.6%	-4.3	-10.9	-33.9%	13.1%	-0.1
51	CCOC(=O)N1CCN(C(=O)C2CCN(Cc3ccc(O)c(OCC)c3)CC2)CC1	.	-7.3%	2.5	-5.8	?	19.3%	1.2
52	Cc1ccccc1CN(C)C(C)C(=O)NCc1ccccc1 (centres undefined)	-2.7%	-9.9%	11.5	-12.3	11.3%[15.4 µM]	1.6%	-2.0
53	Cn1nnnc1SCC(=O)Nc1cc(C(C)(C)C)nn1-c1ccccc1	-0.3%	15.5%	6.9	-0.8	-68.2%[inhibitor]	27.1%	0.2
54	Cc1cc(OC(=O)c2ccc(S(=O)(=O)N(C)C)cc2)cc(=O)o1	0.8%	-12.7%	1.0	6.6	-35.3%	-0.1%	2.1
55	O=C(Nc1nc2ccc(Cl)cc2s1)C1CCCO1 (centres undefined)	-2.1%	9.4%	-4.8	-25.7	14.2%	-10.6%	5.3
56	CCCCN(C(=N)N1CCCCC1)c1nc(C)c([N+](=O)[O-])c(=O)[nH]1	-0.8%	9.0%	4.8	-7.9	-25.7%	13.1%	0.2
57	N#Cc1c(NC(=O)CSc2ncnc3c2cnn3-c2ccccc2Cl)sc2c1CCCC2	-1.8%	-2.6%	-0.1	-3.6	-7.2%	-4.5%	3.8
58	O=C1c2ccccc2C(=O)N1CC1c2ccccc2CCN1C(=O)C1CCCCC1 (centres undefined)	1.5%	-20.3%	3.2	9.0	15.9%	12.7%	-2.3

Compound activity as filed in PubChem BioAssay.
